Ecoli rRNA inh: inhibitors of bacterial rRNA selective over humanized ribosomes; E. coli WT GFP vs humanized-ribosome RFP mutants, fluorescence, 24 h; active compounds read low; DMSO median 0, no signal -100; GFP signal change (wild-type ribosome), % (concentration not given with the values); actives 1.6% (n = 350,000);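 active = significant combined selectivity score with lowered wild-type GFP, culture density cut under 30%, mutant RFP and density less affected; inactive = any of these conditions unmet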; note: one replicate is shown; some compounds called inactive have numbers as strong as hits
AF4-AF9 inh: MLL-AF4/AF9 protein interaction inhibition. AlphaScreen, biotin-AF4 peptide binding to FLAG-AF9. inhibition, % at 10 µM. actives 0.47% (n = 350,000);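 active = every replicate reaching a set inhibition limit, whatever the replicate mean, cut at about 25% in these data; inconclusive = mean inhibition reaches that limit but some replicates miss it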;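 note: 0% = plate neutral control median and 100% = total signal loss; the record names both 10 and 1 µM as test concentration; the first replicate is given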
Target sequence (P42568 whole entry, looked up): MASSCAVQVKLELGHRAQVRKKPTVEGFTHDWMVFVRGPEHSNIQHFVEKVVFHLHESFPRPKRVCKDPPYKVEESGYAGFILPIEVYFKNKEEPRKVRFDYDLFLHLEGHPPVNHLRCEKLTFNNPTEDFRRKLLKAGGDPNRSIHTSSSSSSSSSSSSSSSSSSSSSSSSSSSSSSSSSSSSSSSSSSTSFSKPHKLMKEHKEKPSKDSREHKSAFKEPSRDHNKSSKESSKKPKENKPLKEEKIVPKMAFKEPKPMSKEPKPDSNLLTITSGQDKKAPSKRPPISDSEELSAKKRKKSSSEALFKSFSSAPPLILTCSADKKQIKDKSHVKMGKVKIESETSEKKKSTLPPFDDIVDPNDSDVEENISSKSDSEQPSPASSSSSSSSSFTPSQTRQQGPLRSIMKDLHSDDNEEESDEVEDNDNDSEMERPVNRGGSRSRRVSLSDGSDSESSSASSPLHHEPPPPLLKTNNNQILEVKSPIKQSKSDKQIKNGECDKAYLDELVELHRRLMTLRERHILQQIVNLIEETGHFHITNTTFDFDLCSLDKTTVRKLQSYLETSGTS
Bfl-1 A1 inh: inhibitors of the anti-apoptotic protein A1, read as caspase activation | MEF A1-2A-BIM cells, Caspase-Glo 3/7 luminescence, 3 h; percent of clofoctol response, vehicle zero | caspase activation, % (test concentration not listed) | actives 0.066% (n = 330,000) | AID 2462;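 active = over half of replicate activation scores above 10%, or exactly half above 10 with the replicate mean above 10; inconclusive = replicate mean below 10 yet half the replicates above 10; inactive = over half of replicates below 10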;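 note: wells of about 30 µL received 50 nL stock; many hits fall short of the cut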
UCH37 DUB inh: inhibitors of human deubiquitinating enzyme UCH37; Q9Y5K5; purified proteasome/UCH37, Ub-AMC cleavage fluorescence; inhibition, % (no concentration beside the values); actives 0.33% (n = 330,000);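 active = mean of two replicates above 20%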;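 note: 0% = compound-free wells with enzyme and 100% = wells lacking proteasome; stock transfer was 100 nL into about 20 µL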
Target sequence (Q9Y5K5 whole entry, looked up): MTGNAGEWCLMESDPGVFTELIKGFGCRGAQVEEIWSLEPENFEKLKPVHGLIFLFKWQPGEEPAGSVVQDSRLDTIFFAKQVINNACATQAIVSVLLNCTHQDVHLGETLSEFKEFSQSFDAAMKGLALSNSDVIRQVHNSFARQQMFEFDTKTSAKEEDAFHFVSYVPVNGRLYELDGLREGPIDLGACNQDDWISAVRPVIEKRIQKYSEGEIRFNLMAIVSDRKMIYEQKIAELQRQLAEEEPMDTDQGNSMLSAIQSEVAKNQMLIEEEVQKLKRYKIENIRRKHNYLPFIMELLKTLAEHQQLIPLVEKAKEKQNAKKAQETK
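system = Proteasome-associated human UCH37 deubiquitinase | amount = 0.15 nM proteasome as dispensed | medium = pH 7.4 Tris-HCl (50 mM) with ovalbumin, ATP-MgCl2, DTT | incubation = 30 min preincubation with enzyme, 25 min cleavage at room temperature | detection = AMC fluorescence 355/460 nm | read-out basis = percent inhibition | controls = no-proteasome and no-compound wells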
E coli growth: E. coli growth inhibition. Escherichia coli growth, OD600, 23 h; active compounds read low. OD600 absorbance (no concentration beside the values). actives 0.21% (n = 330,000). AID 1053175;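 active = OD600 absorbance below the run mean of sample wells minus 3.6 SD, in any replicate, cut at about 0.56 in these data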;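 note: stock transfer was 300 nL into about 60 µL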
T cruzi inh: blocks replication of Trypanosoma cruzi; actives 1.4% (n = 300,000); AID 1885; T. cruzi beta-gal in NIH3T3, luminescence, 90 h; inhibition, % (concentration not given with the values);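 active = mean inhibition across valid replicates above about 55%, limit read from the data; inconclusive = mean below that limit but half or more replicates reach it; inactive = mean below it, under half of replicates reach it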;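 note: signal also drops with host cell toxicity which is not excluded here; 0% = plate median of DMSO wells and 100% = zero luminescence signal; higher percent means less beta-gal luminescence so fewer parasites; stock transfer was 50 nL into about 50 µL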
FGF22 binding: binders of recombinant human FGF22 by thermal shift; Q9HCT0; AID 651658; actives 1.5% (n = 340,000); calls only at 9.99 µM; SYPRO orange fluorescence; percent of sucrose octasulfate shift, DMSO zero;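 active = melting point raised past a set limit in the mean and every replicate; inconclusive = no clear call; three in four hits are not shown here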
Target sequence (Q9HCT0 whole entry, looked up): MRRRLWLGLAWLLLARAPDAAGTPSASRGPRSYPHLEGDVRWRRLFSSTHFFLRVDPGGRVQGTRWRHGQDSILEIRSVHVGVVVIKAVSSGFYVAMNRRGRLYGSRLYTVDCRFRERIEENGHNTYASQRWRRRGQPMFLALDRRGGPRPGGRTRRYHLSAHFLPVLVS
Beta apoptosis: blocks beta cell apoptosis; INS-1E cytokine-induced death, ATP luminescence, 48 h; percent of positive-control rescue, neutral wells zero; actives 0.8% (n = 300,000); protection from apoptosis, % (concentration not given with the values);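 active = all replicates at 75% or more, or half of them and the mean; inconclusive = half reach 75% but not the mean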;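 note: 0% = cytokine-treated negative control wells and 100% = positive control rescue; higher means more ATP so stronger rescue from cytokine killing; wells of about 40 µL received 100 nL stock; the first replicate is given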
Ecoli rRNA inh OD600: also measured in Ecoli rRNA inh; calls as there; OD600 change, %; measured here: OD600 growth;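 optical density of the mix in the first replicate; 0 = DMSO median and -100 = no signal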
Ecoli rRNA inh RFP: second read-out of Ecoli rRNA inh, no call of its own (marks repeat the call); RFP signal change, %; measured here: RFP humanized mutant strains;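 first replicate; 0 = DMSO median and -100 = no signal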
The depositor's hits bear a star; i = inactive; ? = inconclusive; nt = not tested or not shown.

Second line of a record – Ecoli rRNA inh	Ecoli rRNA inh OD600	Ecoli rRNA inh RFP	AF4-AF9 inh	Bfl-1 A1 inh	UCH37 DUB inh	E coli growth	T cruzi inh	FGF22 binding	Beta apoptosis
- COc1ccc(C(=O)Cn2c(NCCCO)nc3ccccc32)cc1OC
    23.3	3.2	1.3	1.6	0.5	nt	nt	-0.1	i	3.1
- CCOC(=O)c1c(O)c2ccccc2n(CC)c1=O
    7.2	9.4	-2.8	-2.1	0.5	-1.4	0.701	-2.2	i	-0.8
- Cn1c(CNC(=O)c2ccccc2F)cc2ccccc21
    12.9	2.7	6.2	-2.9	0.0	3.2	0.66	4.5	i	-2.8
- CC(=O)OCCOCn1cnn2c(=O)c(Br)c(C)nc12
    9.3	9.0	-3.8	2.9	0.7	2.8	0.715	1.8	i	-4.0
- Cc1onc(-c2ccccc2)c1C(=O)NCCc1ccncc1
    7.2	19.0	1.2	0.0	1.3	3.0	0.717	-4.4	i	-4.4
- Cc1ccc(NC(=O)COC(=O)c2cccnc2)cc1
    10.4	16.2	0.4	-2.4	1.8	1.5	0.724	-15.8	i	-2.6
- COc1ccccc1CNC(=O)CSc1nc2c(oc3ccccc32)c(=O)n1CC1CCCO1 (centres undefined)
    0.2	5.1	-2.1	3.6	0.8	2.7	0.706	30.6	i	nt
- Cc1cc(C)nc(NCC(O)COc2ccccc2C)n1 (centres undefined)
    nt	nt	nt	nt	0.4	4.6	0.709	-1.3	nt	-3.6
- COc1ccc(CNC(=O)CCS(=O)(=O)Cc2ccc(C)cc2)c(OC)c1
    1.7	7.1	1.5	0.1	0.4	1.7	0.705	-1.6	i	-8.6
- Cc1ccc(S(=O)(=O)CCC(=O)N2CCN(c3ccc([N+](=O)[O-])cc3)CC2)cc1
    -11.9	-17.9	1.6	0.5	1.4	8.0	0.694	-1.0	i	7.4
- Cc1nccc(-c2cccc(NC(=O)c3ccccc3Cl)c2)n1
    -17.6	-2.0	8.2	nt	0.5	3.9	0.588	-5.1	i	2.3
- CCOc1nc2ccccc2cc1/C=C/C(=O)O
    -2.0	-13.7	-2.3	-16.1	1.4	-164.7	0.637	0.6	i	-0.9
- CC(=O)Nc1ccc(SCCCC(=O)c2ccccc2)cc1
    -6.9	-14.7	0.5	-1.0	0.0	4.4	0.648	-2.7	i	6.1
- CCOc1cc(N2CCOCC2)c(OCC)cc1NC(=O)Cn1cnc2c(=O)n(C)c(=O)n(C)c21
    17.1	14.4	4.9	-2.1	-0.8	3.5	0.694	-10.5	i	-1.0
- COC(=O)c1ccc2c(c1)NC1=C(C(=O)CC(C)(C)C1)C(c1ccncc1)N2 (centres undefined)
    0.6	-0.2	-7.8	-7.0	0.1	14.3	0.654	12.5	i	-6.6
- COc1ccc(Cc2noc(CN3CCCC(C(=O)c4cccs4)C3)n2)cc1OC (centres undefined)
    1.9	-2.2	-2.3	0.8	?	4.3	0.683	6.3	i	-5.8
- CC1SCC(=O)N(CC(=O)NCCc2ccccc2)C1=O (centres undefined)
    11.4	8.5	3.6	-2.5	0.0	4.6	0.684	-7.1	nt	-3.2
- Nc1ccccc1SCC(O)Cn1ccc2ccccc21 (centres undefined)
    nt	nt	nt	nt	0.5	-1.2	0.683	-3.6	nt	-17.7
- COc1ccc(-c2c(C(C)=O)c(C)n(C)c2C)cc1
    -3.8	0.1	-15.6	0.0	-0.4	2.5	0.658	2.6	i	-0.2
- CCn1c(C)nc2cc(C(=O)NNC(=O)CCC3CCCCC3)ccc21
    nt	nt	nt	nt	0.4	1.2	0.671	3.9	nt	-6.5
- COc1ccc(C2C(C(=O)N3CCC(C)CC3)c3ccccc3C(=O)N2C)cc1 (centres undefined)
    nt	nt	nt	nt	0.3	0.1	0.714	-1.1	nt	1.5
- COc1cccc(/C=N/NC(=O)CN2CC(c3ccccc3)CC2=O)c1OC (centres undefined)
    5.9	3.6	2.8	-1.0	0.4	nt	nt	-11.2	i	-0.6
- CC(C)(C)[C@H]1COC(=O)[C@@H](Cc2ccc(F)cc2)CC/C=C/C[C@@H](CC(=O)N[C@H](CO)Cc2ccccc2)C(=O)N1
    5.7	-5.8	23.0	-3.0	0.4	5.0	nt	nt	i	-7.3
- C=CCNC(=O)c1cc(Cl)ccc1[N+](=O)[O-]
    nt	nt	nt	nt	-0.1	1.4	0.662	-9.5	nt	-2.7
- O=C(NNS(=O)(=O)c1ccc(Cl)cc1)NC1CCCCC1
    nt	nt	nt	nt	2.3	3.3	0.697	-10.3	nt	-3.5
- CCCN(C(=O)COC(=O)CC1CCCCC1)c1c(N)n(Cc2ccccc2)c(=O)[nH]c1=O
    -1.3	0.6	-0.7	-1.0	0.0	2.1	0.716	-3.3	i	-0.4
- O=C(Nc1cccc(-c2nc3ccccc3o2)c1)c1cccnc1
    16.4	7.8	0.2	-1.8	-0.6	-74.1	0.711	-11.7	i	3.8
- Cc1cccc(NC(=S)N2CCCCCC2)c1C
    9.8	6.6	0.3	-3.0	0.8	4.3	0.7	nt	i	9.4
- COc1cccc(NC(=O)CSC2=NN3CCCC(=O)N=C3S2)c1
    -1.0	0.3	1.5	0.1	-0.6	1.5	0.676	-14.5	i	-0.9
- O=C(Nc1ccc2nc(C3CC3)n(Cc3ccc(F)cc3)c(=O)c2c1)c1ccco1
    nt	nt	nt	nt	-1.0	5.1	0.683	11.8	nt	nt

Next section, overlapping the part above by 3 compounds.
Second line of a record – Ecoli rRNA inh	Ecoli rRNA inh OD600	Ecoli rRNA inh RFP	AF4-AF9 inh	Bfl-1 A1 inh	UCH37 DUB inh	E coli growth	T cruzi inh	FGF22 binding	Beta apoptosis
- Cc1cccc(NC(=S)N2CCCCCC2)c1C
    9.8	6.6	0.3	-3.0	0.8	4.3	0.7	nt	i	9.4
- COc1cccc(NC(=O)CSC2=NN3CCCC(=O)N=C3S2)c1
    -1.0	0.3	1.5	0.1	-0.6	1.5	0.676	-14.5	i	-0.9
- O=C(Nc1ccc2nc(C3CC3)n(Cc3ccc(F)cc3)c(=O)c2c1)c1ccco1
    nt	nt	nt	nt	-1.0	5.1	0.683	11.8	nt	nt
- Cc1ccc(-c2csc(NC(=O)C3CC(=O)N(Cc4ccco4)C3)n2)cc1 (centres undefined)
    -40.0	-67.1	-1.4	6.3	0.4	4.8	0.664	-16.3	i	-0.5
- CCC(=O)OCC(=O)Nc1ccc([N+](=O)[O-])cc1OC
    7.4	13.2	-1.5	-9.8	1.4	7.3	0.689	-10.0	i	-0.3
- O=C(O)c1nc(Cl)c(Cl)c(N/N=C/c2ccccc2C(F)(F)F)c1Cl
    nt	nt	nt	3.7	0.0	nt	nt	-9.4	i	-2.4
- COc1cc(CNCc2ccc(OC)c3ccccc23)cc(OC)c1OC
    -6.3	-8.0	2.9	1.6	1.9	5.2	0.681	-4.5	i	11.8
- C[C@@H]1CCC[C@H](C)N1Cc1nc(Cc2ccccc2Cl)no1
    -10.5	-2.8	3.8	-1.5	0.1	2.6	nt	-5.4	i	-3.6
- COCC(=O)N1CCC(Oc2ccc(C(=O)N3C[C@@H]4CCC[C@H]3C4)cc2)CC1
    6.3	8.5	-0.7	2.0	nt	1.6	0.644	-8.4	i	nt
- OC(COc1ccc2c(c1)CCC2)CN1CCN(c2ccccc2F)CC1 (centres undefined)
    nt	nt	nt	nt	0.5	2.2	0.647	-3.5	nt	nt
- COC(=O)CC#N
    -0.4	0.3	-0.9	nt	0.3	nt	nt	nt	i	0.8
- CCOC(=O)c1c(C)[nH]c(C)c1S(=O)(=O)NCCN1CCN(c2cc(Cl)ccc2C)CC1
    -23.1	-53.4	8.5	-9.9	0.5	3.0	0.689	34.8	i	12.3
- CN(C)c1ccc(S(=O)(=O)NCC(=O)N2CCN(c3ccccc3)CC2)cc1[N+](=O)[O-]
    -16.2	-9.2	5.2	-4.9	1.7	6.3	0.716	4.4	i	-2.6
- Cc1cc(Br)ccc1NC(=O)CN(C)C(=O)CN1C(=O)NC(C)(C2CC2)C1=O (centres undefined)
    1.0	9.9	-3.7	-1.6	-0.2	1.7	0.668	nt	i	4.2
- CCCCOc1ccccc1C1NC(=O)NC(C)=C1C(=O)OCCOCC (centres undefined)
    3.3	-0.5	-1.3	5.6	-0.1	3.6	0.704	1.2	i	5.6
- COc1cccc(-c2ncc3ccccc3c2COC(=O)c2ccco2)c1
    -0.5	13.3	2.2	-1.9	0.0	0.6	0.716	nt	i	0.7
- O=C(N/N=C\c1cc(Br)c(Br)o1)C1COc2ccccc2O1 (centres undefined)
    -23.3	-23.6	3.3	nt	0.2	nt	nt	-6.9	i	2.4
- O=C(CCc1ccccc1)NNC(=O)COc1ccc(Br)cc1
    5.6	9.4	-0.3	1.0	-0.4	2.5	0.611	-2.3	i	-0.8
- O=c1c2ccccc2nc(/C=C/c2ccccc2)n1CCc1ccccc1
    nt	nt	nt	5.0	0.7	5.5	0.699	15.9	i	20.9
- CCOc1ccc(CN(C)C(=O)c2cc3ccccc3o2)cc1OC
    2.6	-5.7	5.6	-2.7	-0.2	-0.1	0.708	9.0	i	-1.9
- CCOC(=O)c1c(CSc2ccccc2)n(C)c2cc(Br)c(OC)c(O)c12
    7.4	7.7	-1.3	0.7	-0.2	6.0	0.671	31.7	i	13.6
- COc1c(C(=O)Nc2ccc(Cc3ccncc3)cc2)ccc2ccccc12
    nt	nt	nt	nt	0.5	-2.4	0.668	12.6	nt	7.4
- O=C(CCn1nnnc1CN1CCOCC1)N1CCC(c2ccccc2F)C1 (centres undefined)
    13.8	5.1	0.3	-0.1	-0.4	3.7	0.656	-22.9	i	0.2
- Cc1cc([N+](=O)[O-])nn1CC(=O)N1c2ccccc2CC1C (centres undefined)
    3.4	-8.8	-1.1	-1.8	0.6	1.8	0.619	-7.5	i	-4.6
- COCc1c(C(=O)N/N=C/c2cccc3ccccc23)nnn1-c1nonc1N
    -14.8	-5.9	0.9	-12.0	0.1	nt	nt	-15.3	i	1.3
- CSc1ccc(NC(=O)N2CC=C(n3c(=O)[nH]c4ccccc43)CC2)cc1
    nt	nt	nt	nt	1.4	0.3	0.638	-4.8	nt	6.3
- O=C(O)CC(NC(=O)C12CC3CC(CC(C3)C1)C2)c1cc([N+](=O)[O-])ccc1Cl (centres undefined)
    6.6	12.4	1.7	-0.9	0.4	1.3	0.75	20.2	i	-1.8
- Cc1ccc(N2C(=O)/C(=C\c3ccc(C(C)C)cc3)N=C2SC2CCOC2=O)cc1 (centres undefined)
    8.2	3.4	-3.3	4.9	0.1	-44.4	0.726	16.0	i	-1.1
- Cc1ccc(-c2nc3ncccc3o2)cc1NC(=O)C(C)(C)C
    -0.4	9.3	2.7	-9.0	0.4	-11.4	0.678	2.6	i	1.2

From PubChem

An excerpt, so the mix of outcomes need not match the whole.
